EPAC1 ag val: Validation qHTS for agonist of cAMP-regulated guanine nucleotide exchange factor 3 (EPAC1). EPAC1 Rap1b BODIPY-GDP exchange, fluorescence. Potency, µM, without a hit: max response, positive = active, usual class: activators. hit rate 1% among 16,000; active = well fitted activation curve with a large enough effect; inconclusive = small, poorly fitted or top-dose-only effect; inactive = no such curve, though single readings can be large or run the other way;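 also: nearly all actives have a fitted effect of over 70% in size; series mostly up to about 76 or 150 µM; scaled to a cAMP control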
Target sequence (O95398 whole entry, looked up): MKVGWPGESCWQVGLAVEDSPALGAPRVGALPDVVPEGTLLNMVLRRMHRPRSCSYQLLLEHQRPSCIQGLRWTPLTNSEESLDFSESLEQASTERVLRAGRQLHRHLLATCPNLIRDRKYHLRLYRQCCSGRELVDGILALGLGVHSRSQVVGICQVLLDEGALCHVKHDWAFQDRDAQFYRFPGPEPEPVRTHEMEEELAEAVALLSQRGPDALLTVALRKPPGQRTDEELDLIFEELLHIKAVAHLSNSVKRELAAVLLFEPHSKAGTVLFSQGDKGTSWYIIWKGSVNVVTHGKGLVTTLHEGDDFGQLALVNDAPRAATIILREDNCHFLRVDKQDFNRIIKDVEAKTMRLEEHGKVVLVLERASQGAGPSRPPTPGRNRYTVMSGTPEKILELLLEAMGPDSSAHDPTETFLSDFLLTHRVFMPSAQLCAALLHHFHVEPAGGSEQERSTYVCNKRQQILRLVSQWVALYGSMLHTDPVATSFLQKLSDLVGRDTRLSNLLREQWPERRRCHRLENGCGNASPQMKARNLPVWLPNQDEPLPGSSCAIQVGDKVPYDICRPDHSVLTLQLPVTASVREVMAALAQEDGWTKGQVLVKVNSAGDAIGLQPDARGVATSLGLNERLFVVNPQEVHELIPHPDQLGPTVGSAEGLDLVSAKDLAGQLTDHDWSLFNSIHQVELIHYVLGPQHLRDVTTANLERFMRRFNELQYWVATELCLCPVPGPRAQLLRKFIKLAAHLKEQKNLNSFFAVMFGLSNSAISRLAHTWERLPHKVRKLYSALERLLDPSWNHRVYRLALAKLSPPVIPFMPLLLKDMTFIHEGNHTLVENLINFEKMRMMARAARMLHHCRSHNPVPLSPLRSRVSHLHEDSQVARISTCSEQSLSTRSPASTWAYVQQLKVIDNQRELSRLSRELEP
* hit, by the source's call; u = inconclusive; & = joins results of further samples; [ ] = another dose, or the depositor's remark. % is scaled to controls: 0 for no effect and ±100 for the full control effect; potency is read from the fitted curve at half-maximal effect. Some of the compounds tested; the hit share may differ from the screen's.

#	SMILES	EPAC1 ag val
1	Cc1ccccc1C(=O)Nc1ccc(C(=O)N2CCCC(O)c3cc(Cl)ccc32)c(C)c1 (centres undefined)	18%
2	O=C(O)[C@H]1[C@H]2C[C@H]3c4[nH]c5ccccc5c4CCN3C[C@@H]2CC[C@@H]1O	-5%
3	CCCNC(C)C(=O)Nc1c(C)csc1C(=O)OC (centres undefined)	-12%
4	O=C(CCNNC(=O)c1ccncc1)NCc1ccccc1	3%&-4%
5	Cc1c(NC(=O)c2cccnc2)c(=O)n(-c2ccccc2)n1C	-15%&-1%
6	OCCN1CCN(CCCN2c3ccccc3Sc3ccc(Cl)cc32)CC1	2%&-30%&7%
7	Nc1nnnn1-c1ccccc1	21%
8	CC(C(=O)O)c1ccc(C(=O)c2cccs2)cc1 (centres undefined)	-5%&-1%
9	CC(O)CN(C)C (centres undefined)	-34%[inhibitor]
10	CCN(CC)CCNC(=O)c1cc(Cl)c(N)cc1OC	-6%&3%&3%
11	COc1ccc(C(=O)NCc2ccc(OCCN(C)C)cc2)cc1OC	-8%
12	Cc1oc(=O)oc1CN1CCN(c2cc3c(cc2F)c(=O)c(C(=O)O)c2n3C(C)S2)CC1 (centres undefined)	-33%[inhibitor]
13	CC1(C)O[C@@H]2C[C@@H]3[C@H]4C[C@@H](F)C5=CC(=O)C=C[C@]5(C)[C@@]4(F)[C@@H](O)C[C@]3(C)[C@]2(C(=O)CO)O1	-10%
14	CC(=O)NC(Cc1ccccc1)C(=O)O (centres undefined)	-23%
15	O=C1c2c(O)cccc2[C@H]([C@@H]2O[C@H](CO)[C@@H](O)[C@H](O)[C@H]2O)c2cc(CO)cc(O)c21	-36%[inhibitor]
16	CN(C)CCOC(C)(c1ccccc1)c1ccccn1 (centres undefined)	-1%&8%&-22%
17	Cc1c(I)c(=O)n(-c2ccccc2)n1C	-20%
18	CN1CCOC(c2ccccc2)c2ccccc2C1 (centres undefined)	-6%&3%
19	CCC[C@H](N[C@@H](C)C(=O)N1[C@@H]2CCCC[C@H]2C[C@H]1C(=O)O)C(=O)OCC	8%
20	CC(=O)O[C@@]1(C(C)=O)CCC2C3C=C(Cl)C4=CC(=O)C5CC5[C@@]4(C)C3CC[C@]21C (some centres undefined)	11%
21	CC(=O)c1ccc(S(=O)(=O)NC(=O)NC2CCCCC2)cc1	6%&0%
22	CN(C(=O)CCCOc1ccc2[nH]c(=O)ccc2c1)C1CCCCC1	1%&2%&-15%
23	CN1CCN(C(c2ccccc2)c2ccccc2)CC1	0%&12%
24	CN1CCN(CCC(=O)N2c3ccccc3Sc3ccc(C(F)(F)F)cc32)CC1	-6%
25	COc1cc(O)c2c(=O)cc(-c3ccc(OC)c(-c4c(O)cc(O)c5c(=O)cc(-c6ccc(O)cc6)oc45)c3)oc2c1	8%
26	CC1COc2c(N3CCN(C)CC3)c(F)cc3c(=O)c(C(=O)O)cn1c23 (centres undefined)	u
27	O=C(O)c1ccc[n+]([O-])c1	-15%
28	NC(=O)c1cn(Cc2c(F)cccc2F)nn1	3%&-5%
29	Cc1cc(-c2ccccc2)nnc1NCCN1CCOCC1	3%&-2%
30	CCN(CC)CCn1c(=O)c(Cc2ccc(OC)cc2)nc2ccccc21	-9%
31	CC(=O)Nc1ccc(C(=O)O)cc1	-8%
32	COCCCOc1cc(C[C@@H](C[C@H](N)[C@@H](O)C[C@H](C(=O)NCC(C)(C)C(N)=O)C(C)C)C(C)C)ccc1OC	8%
33	OC(C#CCN1CCCC1)(c1ccccc1)c1ccccc1	-10%
34	O=C1c2ccc(O)c(O)c2C(=O)c2c(O)ccc(O)c21	-5%
35	C=CC1=C(C(=O)O)N2C(=O)[C@@H](NC(=O)/C(=N\O)c3csc(N)n3)[C@H]2SC1 (stereo in doubt)	21%&-5%
36	COc1ccc(/C=C/C(=O)Nc2ccccc2C(=O)O)cc1OC	17%&-30%
37	O=C(CCN1CCC(c2ccccc2)C1)c1ccc2c(c1)OCCO2 (centres undefined)	8%
38	CC12CCC(CC1)C(C)(C)O2	0%&-8%
39	COC(=O)c1ccc(O)cc1	-23%
40	CCC(=O)O	-1%
41	CCOC(=O)c1ccc(OCCN2C[C@H](O)[C@@H](O)[C@H](O)[C@H]2CO)cc1	5%
42	CC(=O)c1ccc2c(c1)N(CCCN(C)C)c1ccccc1S2	-39%[inhibitor]
43	CCC1Nc2cc(Cl)c(S(N)(=O)=O)cc2S(=O)(=O)N1 (centres undefined)	-9%
44	O=C(NCCc1c[nH]c2ccccc12)c1cccnc1	14%
45	Cc1cc(NS(=O)(=O)c2ccc(N)cc2)nc(C)n1	-5%
46	COc1ccc(C(=O)CC(=O)c2ccc(C(C)(C)C)cc2)cc1	-40%[inhibitor]
47	Cn1c(=O)c2[nH]c(Br)nc2n(C)c1=O	-24%
48	O=C(O)CNC(=O)c1ccccc1I	-17%
49	Cn1c(=O)c2c(ncn2CC2OCCO2)n(C)c1=O	1%
50	CCC(C)[C@@H](N)C(=O)O (some centres undefined)	-11%&-4%

3 entries already listed, arranged by number of heavy atoms, ascending:
#	SMILES	EPAC1 ag val
48	O=C(O)CNC(=O)c1ccccc1I	-17%
28	NC(=O)c1cn(Cc2c(F)cccc2F)nn1	3%&-5%
49	Cn1c(=O)c2c(ncn2CC2OCCO2)n(C)c1=O	1%

Continuation.
#	SMILES	EPAC1 ag val
51	C1CCC(C(CC2CCCCN2)C2CCCCC2)CC1 (centres undefined)	-8%
52	Cc1nc2ccccn2c(=O)c1CCN1CCC(C(=O)c2ccc(F)cc2)CC1	1%&-17%
53	Cc1c(C(=O)NCCO)[n+](=O)c2ccccc2n1[O-]	-6%
54	CCOc1ccccc1C(N)=O	5%
55	O=c1cc(-c2ccc(O)cc2)oc2cc(OC3OC(CO)C(O)C(O)[C@H]3O[C@@H]3OC[C@@](O)(CO)C3O)cc(O)c12 (some centres undefined)	-15%
56	Cn1c(O)c(N=NC(N)=S)c2ccccc21	-3%
57	c1ccc(CC2=NCCN2)cc1	17%&-9%
58	O=S(=O)(c1cccc2cnccc12)N1CCCNCC1	-23%&-7%
59	C[C@@H](N)C1CCC(C(=O)Nc2ccncc2)CC1 (some centres undefined)	-9%&0%&-1%
60	COC(=O)C1=CO[C@@H](O[C@H]2OC(CO)C(O)C(O)C2O)C2C1CC(O)C2C (some centres undefined)	-7%
61	CCN(CC)CCOC(=O)C1(c2ccccc2)CCCC1	-7%
62	COc1ccccc1N1CCN(CCCNc2cc(=O)n(C)c(=O)n2C)CC1	4%&6%&-48%&10%&-16%
63	c1ccc(CN(CC2=NCCN2)c2ccccc2)cc1	-24%&-5%&2%
64	CC(COc1ccccc1)NC(C)C(O)c1ccc(O)cc1 (centres undefined)	23%&-1%
65	Cc1nc(-c2ccc(Cl)cc2)oc1COC(C)(C)C(=O)O	-11%
66	NC(N)=NCCC[C@H](N)C(=O)O	-9%&19%&-3%
67	O=C(c1ccc(F)cc1)C1CCN(CCn2c(=O)[nH]c3ccccc3c2=O)CC1	5%&6%&3%&-45%
68	CC(=O)C1CCC2C3CC(C)C4=CC(=O)CC[C@@]4(C)C3C(O)C[C@@]12C (some centres undefined)	12%
69	Oc1ccc(/C=C/c2cc(O)cc(O)c2)cc1	u
70	COc1cc(NS(=O)(=O)c2ccc(N)cc2)nc(C)n1	-22%
71	CCCCC(O)c1ccccc1 (centres undefined)	-8%
72	C[C@]12CCC(=O)C=C1CC[C@@H]1[C@@H]2CC[C@@]2(C)[C@H]1CC[C@]2(O)C(=O)CO	-4%&26%
73	Cc1ccc(S(=O)(=O)NC(=O)NC2CCCCCCC2)cc1	-18%
74	CCOc1ccc(C(=O)OCCN(CC)CC)cc1	-8%
75	O=C(CS(=O)Cc1ccco1)NCC=CCOc1cc(CN2CCCCC2)ccn1 (centres undefined)	6%

Overlap with the part before: three compounds; new compounds follow.
#	SMILES	EPAC1 ag val
73	Cc1ccc(S(=O)(=O)NC(=O)NC2CCCCCCC2)cc1	-18%
74	CCOc1ccc(C(=O)OCCN(CC)CC)cc1	-8%
75	O=C(CS(=O)Cc1ccco1)NCC=CCOc1cc(CN2CCCCC2)ccn1 (centres undefined)	6%
76	CC[N+](C)(CC)CCOC(=O)C(O)(c1ccccc1)C1CCCCC1 (centres undefined)	-26%
77	CC1(C)O[C@H]2CC(=O)OC[C@]23[C@H]2CC[C@@]4(C)[C@H](c5ccoc5)OC(=O)[C@H]5O[C@]54[C@]2(C)C(=O)C[C@@H]13	8%
78	O=c1[nH]c2cc(C(F)(F)F)c(N3CCOCC3)cc2n(CP(=O)(O)O)c1=O	2%
79	C[C@@H]1C[C@H]2C3C[C@H](F)C4=CC(=O)C=CC4(C)[C@@]3(F)[C@@H](O)CC2(C)[C@@]1(O)C(=O)COC(=O)C(C)(C)C (some centres undefined)	-12%
80	COc1cc2c(cc1OC)C(=O)C(CC1CCN(Cc3ccccc3)CC1)C2 (centres undefined)	-3%
81	COc1cc(C(=O)OC(COCCC(C)C)CN2CCOCC2)cc(OC)c1OC (centres undefined)	-6%
82	CCCCCCCCCCCCCCC[C@H](O)[C@H](N)CO	-35%[inhibitor]
83	CCCn1cnc2c1c(=O)n(CCCCC(C)=O)c(=O)n2C	-8%&-29%

Molecules from the list above with an NH in an aromatic ring (6):
#	SMILES	EPAC1 ag val
2	O=C(O)[C@H]1[C@H]2C[C@H]3c4[nH]c5ccccc5c4CCN3C[C@@H]2CC[C@@H]1O	-5%
22	CN(C(=O)CCCOc1ccc2[nH]c(=O)ccc2c1)C1CCCCC1	1%&2%&-15%
44	O=C(NCCc1c[nH]c2ccccc12)c1cccnc1	14%
47	Cn1c(=O)c2[nH]c(Br)nc2n(C)c1=O	-24%
67	O=C(c1ccc(F)cc1)C1CCN(CCn2c(=O)[nH]c3ccccc3c2=O)CC1	5%&6%&3%&-45%
78	O=c1[nH]c2cc(C(F)(F)F)c(N3CCOCC3)cc2n(CP(=O)(O)O)c1=O	2%

Looked up above.
EPAC1 ag val with entry 80 is entered as -3%
EPAC1 ag val with entry 82 is entered as -35%[inhibitor]
EPAC1 ag val with entry 77 is entered as 8%
EPAC1 ag val with entry 81 is entered as -6%

Screens deposited in PubChem BioAssay by National Center for Advancing Translational Sciences (NCATS).
